Assay outcomes: PubChem BioAssay, Broad Institute
T cruzi inh – blocks replication of Trypanosoma cruzi | T. cruzi beta-gal in NIH3T3, luminescence, 90 h | inhibition, % (test concentration not listed) | actives 1.4% (n = 300,000) | AID 1885;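 active means mean inhibition across valid replicates above about 55%, limit read from the data; inconclusive means mean below that limit but half or more replicates reach it; inactive means mean below it, under half of replicates reach it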;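 further: signal also drops with host cell toxicity which is not excluded here; 0% = plate median of DMSO wells and 100% = zero luminescence signal; higher percent means less beta-gal luminescence so fewer parasites; stock transfer was 50 nL into about 50 µL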
ALR H2O2 inh – human ALR oxidase inhibition via reduced H2O2. purified ALR, DTT oxidation, H2O2 HRP-luminol luminescence. inhibition, % (test concentration not listed). P55789. AID 485317. actives 3.8% (n = 290,000);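 active means mean and each replicate at 75% or more; inconclusive means only one of the two met; inactive means neither met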;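 further: stock transfer was 7.5 nL into about 7.5 µL; 0% = neutral wells and 100% = wells with inactivated enzyme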
Target sequence (P55789 whole entry, looked up): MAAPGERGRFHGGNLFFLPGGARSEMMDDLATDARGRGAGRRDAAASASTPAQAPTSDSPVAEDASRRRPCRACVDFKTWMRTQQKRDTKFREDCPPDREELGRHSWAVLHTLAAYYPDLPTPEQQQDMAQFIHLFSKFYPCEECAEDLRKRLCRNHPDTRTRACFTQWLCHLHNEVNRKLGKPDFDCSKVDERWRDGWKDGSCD
Beta apoptosis – beta cell apoptosis inhibition; INS-1E cytokine-induced death, ATP luminescence, 48 h; percent of positive-control rescue, neutral wells zero; protection from apoptosis, % (test concentration not listed); actives 0.8% (n = 300,000); AID 435005;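 active means all replicates at 75% or more, or half of them and the mean; inconclusive means half reach 75% but not the mean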;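 further: 0% = cytokine-treated negative control wells and 100% = positive control rescue; higher means more ATP so stronger rescue from cytokine killing; wells of about 40 µL received 100 nL stock; the first replicate is given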
MLL AF4-AF9 inh – inhibitors of human MLL-AF4/AF9 interaction. P42568. AlphaScreen, biotin-AF4 peptide binding to FLAG-AF9. inhibition, % at 10 µM. actives 0.47% (n = 350,000);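 active means every replicate reaching a set inhibition limit, whatever the replicate mean, cut at about 25% in these data; inconclusive means mean inhibition reaches that limit but some replicates miss it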;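 further: 0% = plate neutral control median and 100% = total signal loss; the record names both 10 and 1 µM as test concentration; the first replicate is given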
Target sequence (P42568 whole entry, looked up): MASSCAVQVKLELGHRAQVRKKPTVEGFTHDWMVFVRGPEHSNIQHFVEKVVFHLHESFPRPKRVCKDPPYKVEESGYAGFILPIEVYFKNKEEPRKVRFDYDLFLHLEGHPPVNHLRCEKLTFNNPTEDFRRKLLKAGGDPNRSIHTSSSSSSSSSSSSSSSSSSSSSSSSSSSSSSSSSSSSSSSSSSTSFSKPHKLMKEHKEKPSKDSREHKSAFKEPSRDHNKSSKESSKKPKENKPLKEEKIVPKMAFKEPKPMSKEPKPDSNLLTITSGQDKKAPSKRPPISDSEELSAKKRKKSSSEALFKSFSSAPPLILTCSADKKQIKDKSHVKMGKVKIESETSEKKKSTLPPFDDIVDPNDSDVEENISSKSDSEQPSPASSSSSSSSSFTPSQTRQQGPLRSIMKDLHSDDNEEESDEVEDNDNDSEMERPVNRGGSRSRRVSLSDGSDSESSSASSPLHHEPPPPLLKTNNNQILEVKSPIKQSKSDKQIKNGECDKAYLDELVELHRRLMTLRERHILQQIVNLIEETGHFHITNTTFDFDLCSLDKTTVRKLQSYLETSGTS
Calb FLC – C. albicans growth modulation with fluconazole. C. albicans CaCi-2 (fluconazole-resistant clinical isolate) + fluconazole, Alamar Blue growth, 48 h. growth inhibition, % (test concentration not listed). actives 0.57% (n = 300,000);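 active means most replicates above 75%; inconclusive means exactly half above 75%; inactive means most below 75%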;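 further: all wells also contain fluconazole at 8 µg/ml as a sub-toxic cotreatment; 0% = median of DMSO wells and 100% = median of geldanamycin control wells; wells of about 8 µL received 7.5 nL stock; the first replicate is given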
RanGTP-Impb inh – disruptors of Ran-importin-beta complex formation – biochemical, FRET, CFP-Ran, YFP-importin-beta, homogeneous, primary screen; inhibition, % (test concentration not listed); AID 2216; actives 1.1% (n = 300,000); cell-free CFP-Ran/YFP-importin-beta FRET ratio;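 active means most replicates above 15%; inconclusive means exactly half above 15%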;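 further: 0% = DMSO wells and 100% = Ran loaded with GDP instead of GTP; wells of about 40 µL received 100 nL stock; the first replicate is given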
FGF22 binding – binders of recombinant human FGF22 by thermal shift | Q9HCT0 | SYPRO orange fluorescence; percent of sucrose octasulfate shift, DMSO zero | calls only at 9.99 µM | actives 1.5% (n = 340,000);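 active means melting point raised past a set limit in the mean and every replicate; inconclusive means no clear call; three in four hits are not shown here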
Target sequence (Q9HCT0 whole entry, looked up): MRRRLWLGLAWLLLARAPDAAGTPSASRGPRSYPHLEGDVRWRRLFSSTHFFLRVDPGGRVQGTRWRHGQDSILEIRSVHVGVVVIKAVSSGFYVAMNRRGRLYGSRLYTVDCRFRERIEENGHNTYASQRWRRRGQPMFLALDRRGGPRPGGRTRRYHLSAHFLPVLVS
rRNA inh HTS – inhibitors of bacterial rRNA selective over humanized ribosomes; E. coli WT GFP vs humanized-ribosome RFP mutants, fluorescence, 24 h; active compounds read low; DMSO median 0, no signal -100; GFP signal change (wild-type ribosome), % (no concentration beside the values); actives 1.6% (n = 350,000);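 active means significant combined selectivity score with lowered wild-type GFP, culture density cut under 30%, mutant RFP and density less affected; inactive means any of these conditions unmet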; further: one replicate is shown; some compounds called inactive have numbers as strong as hits
rRNA inh HTS OD600 – second read-out of rRNA inh HTS, no call of its own (marks repeat the call); OD600 change, %; measured here: OD600 growth;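 optical density of the mix in the first replicate; 0 = DMSO median and -100 = no signal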
rRNA inh HTS RFP – also measured in rRNA inh HTS; calls as there; RFP signal change, %; measured here: RFP humanized mutant strains;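 first replicate; 0 = DMSO median and -100 = no signal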
Active calls of the source: *; i = inactive; ? = inconclusive; · = not tested or not shown. A portion of the library. The share of hits here may be higher or lower than overall.

mol,T cruzi inh,ALR H2O2 inh,Beta apoptosis,MLL AF4-AF9 inh,Calb FLC,RanGTP-Impb inh,FGF22 binding,rRNA inh HTS,rRNA inh HTS OD600,rRNA inh HTS RFP
CC(=O)O[C@@]12CO[C@@H]1C[C@@H](O)[C@@]1(C)C(=O)[C@H](O)C3=C(C)[C@@H](OC(=O)[C@H](O)[C@@H](NC(=O)c4ccccc4)c4ccccc4)C[C@@](O)([C@@H](OC(=O)c4ccccc4)C12)C3(C)C (some centres not stated),71*,-6,3,7.2,-3,5.7,i,·,·,·
COc1ccc(N2CCN(CCCN)CC2)cc1,29,?,0,·,4,-1.7,·,·,·,·
O=C(O)Cn1cc(/C=C2\C(=O)NC(=O)N(c3ccc(Br)cc3)C2=O)c2ccccc21,-2,-9,-2,-0.7,-5,-3.0,i,14,12,-1.0
Cc1ccc(C)c(NP(=O)(Oc2ccccc2)Oc2ccccc2)c1,-13,-3,5,-3.6,-27,5.0,i,-4,-12,-0.4
COC(=O)C1=C(c2cccc(C#N)c2)C[C@@H]2CC[C@H]1N2C(=O)N1CCCCC1,·,2,0,-0.6,·,·,i,-11,-5,0.7
COC(=O)C1=C(c2cc3ccccc3o2)C[C@@H]2CC[C@H]1N2C(=O)NC1CCCCC1,11,1,8,-41,-9,4.9,i,0,-1,-3.2
CCN(CC)C(=O)c1ccc(N(Cc2ccccc2)S(C)(=O)=O)cc1,4,-11,·,-6.8,-4,0.9,i,-6,-3,-2.8
COC(=O)C1=C(c2cccc(OC)c2OC)C[C@@H]2CC[C@H]1N2C(=O)NCCO,-17,6,-4,1.3,30,5.8,i,7,7,-2.4
Cc1nc2ccccc2c(=O)n1-c1cc(F)ccc1F,-9,-16,-8,-4.2,-2,-0.4,i,2,6,-1.5
C=CCN1C(=O)NC(=O)/C(=C\c2ccc(-c3ccccc3[N+](=O)[O-])o2)C1=O,0,98*,-2,-1.0,7,-1.3,i,18,6,5.4
OC1(c2ccccc2)CCNC2CCCCC21 (configuration not stated),6,0,-3,2.4,-5,0.5,i,18,8,3.5
Cc1ccc(CC2C(=O)N(C)C(=O)N(C)C2=O)s1,-18,12,-3,·,-6,5.8,·,·,·,·
CCOP(=O)(OCC)c1ccc(OP(=O)(c2cccc([N+](=O)[O-])c2)c2cccc([N+](=O)[O-])c2)cc1,1,-2,1,0.8,-2,0.1,i,-3,-5,-2.0
CN1C(=O)CN=C(c2ccc(Cl)cc2)c2cc(Cl)ccc21,3,·,-10,7.3,2,6.1,i,-3,-44,-9.6
O=C(Cn1c(=O)n(CC2CS2)c2ccccc21)N1CCCCCC1 (configuration not stated),0,-3,-5,-0.1,-3,1.8,i,13,13,-6.9

mol,T cruzi inh,ALR H2O2 inh,Beta apoptosis,MLL AF4-AF9 inh,Calb FLC,RanGTP-Impb inh,FGF22 binding,rRNA inh HTS,rRNA inh HTS OD600,rRNA inh HTS RFP
O=C(N/N=C/c1c(O)n(CCC2=CCCCC2)c(=S)[nH]c1=O)c1ccccc1,1,50,-1,-2.6,98*,8.9,i,7,-3,35
CCN1CCc2ccccc2C1,-14,-10,-6,-46,-6,-2.3,i,6,2,-5.3
COc1cc2c(cc1O)[C@@H]1Cc3ccc(OC)c(O)c3CN1CC2,·,54,3,9.4,·,·,i,·,·,·
Oc1ccc(C[C@H]2NCCc3cc(O)c(O)cc32)cc1O,-7,99*,-6,14,?,?,i,-3,2,-1.0
Cc1nn(Cc2ccccc2Cl)c(C)c1C(=O)OCC(=O)NC1CCCC(C)C1C (configuration not stated),5,-8,15,·,0,0.5,·,·,·,·
O=C(COc1ccccc1)N1CCN(CC2CC3C=CC2C3)CC1 (configuration not stated),5,1,-12,·,4,-2.3,·,·,·,·
COc1ccc(-c2nn(Cc3ccccc3)cc2C(=O)NC2CC2)cc1OC,·,·,-7,2.5,·,·,i,2,4,-3.1
Cc1ccsc1C(=O)C1CCCN(Cc2cn(C)nc2C)C1 (configuration not stated),33,-15,2,-11,?,-4.6,i,8,6,5.3
CCN(CC)C(=O)c1ccc(NC(=O)c2ccc3c(c2)NC(=O)CS3)cc1,·,0,0,-80,·,·,i,8,7,0.1
O=c1c2ccccc2nc(-c2ccc(-c3ccccc3)cc2)n1-c1ccncc1,84*,-4,3,7.6,28,3.8,i,-26,-25,-9.9
COCCN1C(=O)NC(=O)/C(=C\c2ccc(Br)cc2)C1=O,-2,-6,0,-3.1,11,1.5,i,7,0,-2.9
CC1CCC2[C@@H](C)C(=O)OC3O[C@]4(C)CCC1C32OO4 (some centres not stated),1,-5,·,-2.0,33,2.5,i,-19,-20,43
CN(C)P(=NC(=S)c1cccn1C)(N(C)C)N(C)C,4,-7,-2,·,-4,-0.3,·,·,·,·
O=C1NC(=S)NC(=O)C1C/C=C/c1ccccc1,-5,16,-8,0.6,-3,3.4,i,8,10,3.3
CN1CCC2(CC1)CC(NC=O)c1ccccc1O2 (configuration not stated),-3,-11,-2,?,8,-5.4,i,4,13,4.1

mol,T cruzi inh,ALR H2O2 inh,Beta apoptosis,MLL AF4-AF9 inh,Calb FLC,RanGTP-Impb inh,FGF22 binding,rRNA inh HTS,rRNA inh HTS OD600,rRNA inh HTS RFP
OC(c1ccc(F)cc1)(c1ccc(F)cc1)[C@@H]1CCCN1,-6,0,-3,·,-11,-0.7,·,·,·,·
CC1(C)CC(N(CCc2ccccc2)Cc2ccccc2)CCO1 (configuration not stated),8,·,-1,-38,-4,-1.5,i,-13,-4,-7.1
CC(=O)c1ccc2c(c1)OCO2,-10,-6,-1,-8.8,0,-1.4,i,·,·,·
COc1ccc2c(C)c(CC(=O)N3C[C@H]4C[C@@H](C3)c3cccc(=O)n3C4)c(=O)oc2c1C,30,·,-2,-9.4,-1,0.7,i,·,·,·
CCc1ccccc1N1C(=O)CC(=O)NC1=O,-15,·,-2,4.7,3,-0.4,i,31,18,2.6
CCc1cc2c(N3CCN(C)CC3)ncnc2s1,40,-9,-4,·,-2,4.9,·,·,·,·
CCC1(C2=NCCN2)Cc2ccccc2O1 (configuration not stated),·,2,-4,6.2,·,·,i,·,·,·
c1ccc(NC2=NCCS2)cc1,-14,-1,-2,·,3,-0.5,i,6,-6,-8.4
COc1cc(CN2C(=O)NC(=O)C3(Cc4cc(C)ccc4N(C)C3)C2=O)cc(OC)c1 (configuration not stated),10,-10,-4,·,21,·,·,·,·,·
COc1cccc(CCNCc2c(F)cccc2F)c1,14,1,3,-0.3,11,-0.8,i,13,11,1.0
COc1ccc(-n2c(O)c(/C=C3\C=Nc4ccc(Br)cc43)c(=O)[nH]c2=O)cc1,-15,3,-19,-2.3,17,-0.5,i,7,6,-0.6
CCN(CC)CCC(=O)O[C@H]1CC[C@]2(C)C3CC[C@@]4(C)C(CC[C@]4(C)O)C3CC[C@H]2C1 (some centres not stated),·,-1,-1,4.4,·,·,i,-54,-80,-15
CCCN1CC[C@@H]2c3cc(O)ccc3CC[C@@H]21,·,6,-9,-4.0,·,·,i,13,11,3.0
Cn1c(CN2CCN(C(=O)COc3ccccc3)CC2)nc2cc([N+](=O)[O-])ccc21,15,·,-2,0.0,-8,-0.5,i,2,5,0.9
CSc1ccccc1C(=O)C1CCCN(Cc2ccncc2)C1 (configuration not stated),-6,-11,-12,5.7,0,0.7,i,4,-6,2.4

mol,T cruzi inh,ALR H2O2 inh,Beta apoptosis,MLL AF4-AF9 inh,Calb FLC,RanGTP-Impb inh,FGF22 binding,rRNA inh HTS,rRNA inh HTS OD600,rRNA inh HTS RFP
CCOP(=O)(Cc1ccccc1)OCC,-12,5,2,-0.3,-10,5.4,i,8,10,1.5
COc1cc2[nH]c(=S)n(-c3ccccc3)c(=O)c2cc1OC,-5,21,-3,-3.1,1,-1.6,·,8,1,1.2
c1cncc(CNC2=NCCC2)c1,-14,-7,0,·,-4,-0.6,·,·,·,·
COc1ccc(OC)c(N2C(=O)NC(=O)/C(=C/c3ccc([N+](=O)[O-])s3)C2=O)c1,65*,3,-2,-2.4,-6,0.5,i,2,8,4.8
O=c1[nH]c(O)c(C=Nc2ccc(Cl)c(C(F)(F)F)c2)c(=O)[nH]1,-4,-12,·,-0.6,-3,0.1,i,6,8,0.2
Cc1cc(=O)oc2c(C)c(OCC(=O)N3CCC(C(=O)O)(c4ccccc4)CC3)ccc12,-9,·,-2,-2.6,-9,?,i,·,·,·
CNc1cc(N2CCN(C)CC2)ccc1[N+](=O)[O-],35,-12,-5,1.5,-16,-3.7,i,9,4,0.0
CC(=O)[C@@]1(O)CC[C@H]2[C@@H]3CC=C4C[C@@H](O)CC[C@]4(C)[C@H]3CC[C@@]21C,-2,-12,-1,-2.4,·,-1.9,i,·,·,·
CN(C)C(=O)Oc1c(Cl)cc(Cl)c2ccccc12,-7,-6,·,·,-17,4.7,·,·,·,·
O=c1c2ccccc2nc(/C=C/c2ccc([N+](=O)[O-])o2)n1-c1ccc(O)cc1,34,·,·,-2.3,98*,-23,i,13,7,6.2
O=[N+]([O-])c1ccc(C2[C@H]3C(c4ccccc4)=NC4(CCCC4)N23)cc1 (some centres not stated),12,4,2,0.2,99*,0.4,i,9,9,-0.1
FC(F)(F)Oc1ccc(C2NCc3ccccc3-n3cccc32)cc1 (configuration not stated),21,-4,-4,11,-31,-3.0,i,-15,-10,0.2
CC(=O)N1N=C2C3CCN(CC3)C2C1c1ccccc1 (configuration not stated),-11,·,-3,·,?,1.2,·,·,·,·
Cc1nc2c(c(=O)[nH]1)C(c1ccccc1Cl)c1c(c3ccccc3oc1=O)O2 (configuration not stated),-19,-11,-5,·,2,0.4,·,·,·,·
C[C@]12CCC3C(CC[C@H]4C[C@@H](O)CC[C@]34C)C1C[C@@H](N)[C@@H]2O (some centres not stated),·,-1,0,-1.9,·,·,i,·,·,·

mol,T cruzi inh,ALR H2O2 inh,Beta apoptosis,MLL AF4-AF9 inh,Calb FLC,RanGTP-Impb inh,FGF22 binding,rRNA inh HTS,rRNA inh HTS OD600,rRNA inh HTS RFP
COc1ccc(CCn2c(O)c(/C=N/NC(=O)c3ccncc3)c(=O)[nH]c2=O)cc1OC,11,18,7,8.7,-11,1.1,i,2,-7,-3.6
COc1ccc(OCC#CCN2CCNCC2)cc1,-7,-5,-3,4.4,-7,0.4,i,13,12,6.1
O=C(COc1ccc2ccc(=O)oc2c1)N1CCC(C(=O)O)(c2ccccc2)CC1,-7,·,-5,-1.6,1,-2.6,i,·,·,·
CCOC(=O)c1[nH]ncc1CN1CCCC(C(=O)c2cccc(Cl)c2)C1 (configuration not stated),5,2,-2,6.5,-2,1.0,i,6,6,7.3
CN1C(=O)N(C)C(=O)C(CCc2ccncc2)(Cc2ccc3c(c2)OCO3)C1=O,10,-12,-1,·,-1,1.1,·,·,·,·
CCCOC(=O)c1ccccc1C(=O)OCCC,·,-5,-8,·,·,·,i,0,3,-1.2
COc1ccccc1CCNC1C2CC3CC(C2)CC1C3 (configuration not stated),17,·,5,·,4,3.5,·,·,·,·
